High-throughput results as filed in PubChem BioAssay.
ROCK2 inh – blocks human Rho kinase 2 activity; hit rate 0.35% among 60,000; inhibition, % at 6 µM; purified ROCK2, Kinase-Glo ATP depletion luminescence; O75116; AID 604;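 active = inhibition above the screen-wide mean inhibition plus 3 SD, cut at about 18% in these data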;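 note: plate controls were DMSO wells for no effect and Y-27632 control wells after no-enzyme background subtraction for full effect; many of its hits are not listed in these tables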
CatS block – blocks human cathepsin S protease activity; P25774; recombinant cathepsin S, AMC dipeptide fluorescence, pooled mixtures; inhibition, %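 (tested at 5 µM per compound within 10-compound mixtures)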; hit rate 0.06% among 62,000; in the data active = inhibition above about 32%, passing the limit was not always enough;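 note: 0% = enzyme without compound and 100% = blank without enzyme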
CatL block – blocks human cathepsin L protease activity | P07711 | purified cathepsin L, fluorogenic substrate, fluorescence | inhibition, %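 (tested at 10 µM)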 | hit rate 0.17% among 58,000; in the data active = inhibition above about 45%;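 note: 0% = enzyme with no compound and 100% = no enzyme blank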
Cathepsin G inh – inhibitors of human cathepsin G. inhibition, % at 5 µM (by protocol). purified enzyme, AMC-tetrapeptide fluorescence, pooled mixtures. hit rate 0.2% among 62,000;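 active = inhibition above 20% in each of the two mixture wells holding the compound; inactive = inhibition of 20% or less in either well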;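 note: 0% = enzyme control without mixture and 100% = blank lacking enzyme; strong numbers were not always called active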
PKA inh – blocks human protein kinase A activity; P17612; PKA Kemptide phosphorylation, Kinase-Glo ATP luminescence; hit rate 0.1% among 65,000; inhibition, % at 6 µM;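 active = inhibition above the screen-wide mean inhibition plus 3 SD, cut at about 21% in these data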; note: many of its hits are not listed in these tables
JNK3 blocker – JNK3 (human) kinase inhibition | AID 746 | hit rate 0.61% among 60,000 | inhibition, % at 8 µM | purified JNK3 kinase activity, HTS; in the data active = inhibition above about 17%;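 note: 0% = DMSO and 100% = reference inhibitor; many of its hits are not listed in these tables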
The depositor's hits bear a star; . = no result given. A portion of the library (hit frequency here may not be typical).

structure	ROCK2 inh	CatS block	CatL block	Cathepsin G inh	PKA inh	JNK3 blocker
Cc1cccc(S(=O)(=O)Nc2nc3ccccc3nc2NCc2ccco2)c1	4	6	-12	15	6	2
Cc1ccc(CN(c2ccc(C(=O)N3CCCC3)cc2)S(C)(=O)=O)cc1	2	10	.	8	3	-1
Cc1cc(=O)[nH]c(SCC(=O)Nc2nc3c(s2)CCCC3)n1	3	1	-3	8	4	-1
COC(=O)Cc1ccc(NC(=O)c2ccc(Br)o2)cc1	2	5	2	-31	7	14
Nc1nc(-c2cccnc2)nn1C(=O)c1ccco1	6	-1	16	2	9	1
CCCCOC(=O)c1cccc(NC(=O)CC)c1	-1	12	10	-14	2	6
CCOC(=O)c1c(C)n(C(=O)c2ccco2)c(=O)n1C(=O)c1ccco1	2	5	5	23*	3	3
O=C(c1ccco1)N1CCN(C(=O)c2ccc(COc3ccc(F)cc3)o2)CC1	-2	0	-3	9	3	-1
COc1ccccc1OCC(=O)c1[nH]c(C)c(C(C)=O)c1C	5	5	10	7	4	-5
O=C(COc1ccccc1Cl)NCc1ccncc1	3	-1	-5	7	2	-1
O=C(O)c1cc(-c2ccccc2Cl)n[nH]1	.	14	2	5	-4	.
Fc1cccc(Cl)c1CSc1ncn[nH]1	.	-6	.	7	-3	.
CC(=O)c1c(OC(=O)c2ccco2)c2ccccc2n1C	5	5	17	18	12	-2
Cn1c(=NC(=O)CSCC(=O)N2CCOCC2)sc2ccccc21	.	15	6	-9	7	.
CCCCCc1c(C)nc(SCC(=O)O)[nH]c1=O	7	3	-2	-12	6	-5
CSc1nc(-c2ccco2)nn1C(=O)Cc1ccccc1	5	0	2	0	7	4
COCCn1c(SC(C)C(=O)Nc2ccc3c(c2)OCCO3)nc2ccccc2c1=O (centres undefined)	1	13	4	11	-1	11
CCOC(=O)N1CCN(C(=O)C2CCCN(S(C)(=O)=O)C2)CC1 (centres undefined)	5	-5	16	5	8	3
O=C(CSc1nccc(=O)[nH]1)N1c2ccccc2CCc2ccccc21	1	1	6	9	8	-8
COc1ccc(-c2cnnn2-c2ccc(NC(=O)c3ccco3)cc2)cc1OC	.	12	17	-3	6	.
CCC(=O)N1C(C(=O)O)CSC1c1ccc(OC)cc1 (centres undefined)	6	-1	14	11	10	5
O=C(CSc1nc(-c2ccco2)cc(C(F)(F)F)n1)N1CCN(Cc2ccccc2)CC1	2	6	.	13	2	8
Nc1nncn1C(=O)c1c(Cl)cccc1Cl	3	18	9	10	4	-3
COCCCN1C(=O)C(=O)/C(=C(/O)c2ccc(OC)cc2)C1c1cccc(OC)c1 (centres undefined)	0	7	-5	8	2	1
COc1ccccc1C(=O)n1nc(-c2ccc(Cl)cc2)nc1N	-1	-20	-2	-2	7	-2
CCCc1nc(-c2cc3ccc(C)cc3[nH]c2=O)no1	.	2	.	7	0	.
CSc1nc(-c2ccco2)nn1C(=O)c1cccs1	6	4	14	59*	8	6
CCOc1ccccc1-n1c(SCC(=O)NCc2ccco2)nnc1-c1ccncc1	9	-1	-5	-15	3	5
Cc1ccc(C(=O)n2cnnc2N)cc1C	9	6	4	85*	12	3
Cc1ccc(S(=O)(=O)NCC(=O)OCC(=O)c2cccs2)cc1	.	1	.	10	0	.
CC(=O)n1nc(-c2cccnc2)nc1N	0	14	-7	14	-4	2
CC(=O)n1nc(-c2ccco2)nc1SCc1ccccc1	7	11	14	7	2	4
CS(=O)(=O)N1CCc2cc(C(=O)OCC(=O)c3ccccc3)ccc21	.	-2	5	0	10	.
CCCc1[nH]nc2c1C(c1ccc(OCCN3CCOCC3)c(OC)c1)C(C#N)=C(N)O2 (centres undefined)	-2	15	20	13	-1	0
CCOC(=O)N1CCN(C(=O)C2CCN(S(=O)(=O)c3ccc(Br)s3)CC2)CC1	.	5	-6	1	2	.
Cc1ccc(C)c(C(=O)n2cnnc2N)c1	-13	-34	-18	-6	0	-5
CC(=O)c1c(C)[nH]c(C(=O)COC(=O)CNS(=O)(=O)c2ccccc2)c1C	10	-5	.	-11	9	0
CCNC(=O)CC1C(=O)N(c2ccc(F)cc2)C(=O)N1Cc1ccc(OC)cc1 (centres undefined)	.	3	4	1	-4	.
Cc1occc1C(=O)n1nnc2ccccc21	0	7	24	10	-4	3
c1ccc2oc(SCc3nc4ccccc4s3)nc2c1	4	-9	7	8	6	0

Carrying on.
Each structure is followed by: ROCK2 inh	CatS block	CatL block	Cathepsin G inh	PKA inh	JNK3 blocker
> Cc1ccc2cc(C)c3nnc(SCC(=O)NCc4ccco4)n3c2c1
    0	17	9	-10	5	-3
> COc1cc(C2C(C#N)=C(N)Oc3cc(C)n(CC4CCCO4)c(=O)c32)cc2c1OCO2 (centres undefined)
    -1	3	8	11	0	-8
> Nc1nc(C(=O)N2CCOCC2)nn1C(=O)c1ccc(Cl)cc1
    1	0	.	40*	5	1
> COc1ccc(N2CCN(C(CNC(=O)c3cccc(Cl)c3)c3cccnc3)CC2)cc1 (centres undefined)
    1	14	14	2	1	7
> COc1ccccc1C(=O)n1nc(-c2ccco2)nc1N
    -9	10	8	13	-7	-7
> CCc1ccc(OCC(=O)NCCN(C)C)c(Br)c1
    6	9	8	9	2	-5
> CCCCn1ccc(=O)c2c(C(F)(F)F)nccc21
    .	4	-5	3	.	.
> O=C(NCc1ccco1)C1(S(=O)(=O)c2ccc(Cl)cc2)CC1
    -2	-6	-2	6	-7	-3
> COC(=O)c1ccc(C2/C(=C(\O)c3cccc(OC)c3)C(=O)C(=O)N2CCCN(C)C)cc1 (centres undefined)
    2	2	8	0	-2	-4
> COCCn1c(C)cc2c(c1=O)C(c1ccccc1F)C(C#N)=C(N)O2 (centres undefined)
    3	0	9	9	4	3
> COC(=O)c1ccc(OC(=O)c2nn(C)cc2Cl)c(OC)c1
    -2	11	7	1	-1	-3
> O=C(CSc1nnc(COc2ccccc2)n1-c1ccccc1)c1cccs1
    4	-25	.	-21	9	-3
> Cc1cnn(C(=S)NCC2CCCO2)c1 (centres undefined)
    6	-7	9	-4	8	4
> Cc1ccc(S(=O)(=O)n2nc(OC(=O)C(C)(C)C)cc2N)cc1
    4	4	10	-9	10	-1
> C=CCn1c(SCC(=O)Nc2c(C)nn(Cc3ccccc3)c2C)nnc1C(O)c1ccccc1 (centres undefined)
    8	3	4	-4	11	0
> Cc1ccc(-c2nnc3ccc(SCC(=O)NCc4ccco4)nn23)cc1
    -1	1	3	-6	5	8
> Cc1ccccc1NC(=O)C1CC(Cl)=CCC1C(=O)O (centres undefined)
    0	-3	16	10	-4	1
> CCOC(=O)N1CCN(C(=O)c2cc(Cl)c(Cl)cc2C(=O)O)CC1
    .	12	27	-2	0	.
> CCNC(=O)CC1C(=O)N(c2ccc(F)cc2)C(=O)N1CCc1ccc(OC)cc1 (centres undefined)
    .	2	22	3	11	.
> COc1ccc(C(N)CCc2ccco2)cc1 (centres undefined)
    5	-3	-4	4	11	-3
> CN(C)CCC(=O)c1ccc2c(c1)OCO2
    4	-1	24	5	8	-4
> CCn1c(C)cc2c(c1=O)C(c1ccncc1)C(C#N)=C(N)O2 (centres undefined)
    -3	3	-9	9	-5	1

In the list so far, 15 contain an aryl thioether with sulfur outside any ring.
Each structure is followed by: ROCK2 inh	CatS block	CatL block	Cathepsin G inh	PKA inh	JNK3 blocker
> Cc1cc(=O)[nH]c(SCC(=O)Nc2nc3c(s2)CCCC3)n1
    3	1	-3	8	4	-1
> Fc1cccc(Cl)c1CSc1ncn[nH]1
    .	-6	.	7	-3	.
> CCCCCc1c(C)nc(SCC(=O)O)[nH]c1=O
    7	3	-2	-12	6	-5
> CSc1nc(-c2ccco2)nn1C(=O)Cc1ccccc1
    5	0	2	0	7	4
> COCCn1c(SC(C)C(=O)Nc2ccc3c(c2)OCCO3)nc2ccccc2c1=O (centres undefined)
    1	13	4	11	-1	11
> O=C(CSc1nccc(=O)[nH]1)N1c2ccccc2CCc2ccccc21
    1	1	6	9	8	-8
> O=C(CSc1nc(-c2ccco2)cc(C(F)(F)F)n1)N1CCN(Cc2ccccc2)CC1
    2	6	.	13	2	8
> CSc1nc(-c2ccco2)nn1C(=O)c1cccs1
    6	4	14	59*	8	6
> CCOc1ccccc1-n1c(SCC(=O)NCc2ccco2)nnc1-c1ccncc1
    9	-1	-5	-15	3	5
> CC(=O)n1nc(-c2ccco2)nc1SCc1ccccc1
    7	11	14	7	2	4
> c1ccc2oc(SCc3nc4ccccc4s3)nc2c1
    4	-9	7	8	6	0
> Cc1ccc2cc(C)c3nnc(SCC(=O)NCc4ccco4)n3c2c1
    0	17	9	-10	5	-3
> O=C(CSc1nnc(COc2ccccc2)n1-c1ccccc1)c1cccs1
    4	-25	.	-21	9	-3
> C=CCn1c(SCC(=O)Nc2c(C)nn(Cc3ccccc3)c2C)nnc1C(O)c1ccccc1 (centres undefined)
    8	3	4	-4	11	0
> Cc1ccc(-c2nnc3ccc(SCC(=O)NCc4ccco4)nn23)cc1
    -1	1	3	-6	5	8
